Screening results deposited in PubChem BioAssay by several laboratories.
Env fusion inh: inhibitors of HIV Env-mediated cell fusion | HeLa-JRFL Env/CEM21 cell fusion, luciferase | inhibition, % at 12.3 µM | 1.1% of 360,000 active | AID 651610;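 active means mean replicate inhibition score of at least 50 and every replicate individually at or above 50; inconclusive means only one of the two criteria met; inactive means mean below 50 and not all replicates reaching 50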;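 further: 0% = plate neutral controls and 100% = maraviroc near 300 nM; one replicate is shown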
PABP polyA inh: PABP-poly(A) binding inhibition. PABP-poly(A) RNA binding, fluorescence polarization. inhibition, % at 35 µM. 1% of 290,000 active. AID 2014;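 active means 50% or more with normal probe brightness, or confirmed in later tests; inconclusive means above 50% with abnormal brightness, or retests that disagree; inactive means below 50% or failed in later tests; about a fifth of its hits are not listed in these tables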;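 further: calls also rest on retests at 20 µM and on dose response follow-up; controls were probe without protein and protein plus probe with vehicle; some compounds called inactive have numbers as strong as hits; many hits fall short of the cut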
Yeast UUG start: modulators of start codon recognition fidelity in yeast. 0.13% of 350,000 active. S. cerevisiae UUG-firefly luciferase reporter, luminescence/redox ratio. activity score, % at 18.7 µM;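 active means replicate mean at a twofold rise or more, about +100% in these data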;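 further: firefly luciferase made from a UUG start codon reports start codon fidelity; reporter light over untreated wells divided by growth signal over untreated wells; some hits fall short of that in this replicate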
Rce1 inh: yeast Ras-converting enzyme inhibition | Q03530 | yeast membranes, quenched prenylated peptide cleavage fluorescence | calls only | 0.27% of 290,000 active;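 active means fall in fluorescence gain of 50% or more versus controls, with final raw signal at or below 3038400; inconclusive means same 50% fall but final raw signal above 3038400; inactive means fall in fluorescence gain under 50%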;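 further: plate controls were neutral control wells for no effect and wells lacking membranes for full effect; tested at 10 µM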
Target sequence (Q03530 whole entry, looked up): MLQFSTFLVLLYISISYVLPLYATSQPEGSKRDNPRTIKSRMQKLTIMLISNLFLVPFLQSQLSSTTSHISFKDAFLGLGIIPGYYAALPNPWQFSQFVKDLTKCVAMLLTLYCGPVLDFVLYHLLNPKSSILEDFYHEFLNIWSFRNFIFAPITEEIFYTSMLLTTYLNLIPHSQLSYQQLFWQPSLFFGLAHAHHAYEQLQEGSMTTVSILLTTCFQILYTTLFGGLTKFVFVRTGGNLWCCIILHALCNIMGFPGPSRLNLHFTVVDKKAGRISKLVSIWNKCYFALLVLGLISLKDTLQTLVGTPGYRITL
eIF4H inh: inhibitors of RNA binding by human eIF4H; 0.94% of 290,000 active; Q15056; eIF4H fluorescence polarization binding assay; inhibition, % at 35 µM; AID 2012;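 active means 50% or more with normal probe brightness, or confirmed in later tests; inconclusive means above 50% with abnormal brightness, or retests that disagree; inactive means below 50% or failed in later tests; about a fifth of its hits are not listed in these tables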;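 further: calls also rest on retests at 20 µM and on dose response follow-up; 0% = protein and probe with vehicle and 100% = probe without protein; strong numbers were not always called active; many hits fall short of the cut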
MT1-MMP act inh: MT1-MMP (human) activation inhibition; P50281; HT1080 RFP-PRO-GFP cells, GFP/RFP ratio fluorescence, overnight; percent of plate control window, DMSO zero; GFP/RFP ratio change, % at 20 µM; 0.061% of 360,000 active;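 active means GFP/RFP ratio change of at least 30% with cell ATP level not reduced by more than half and red fluorescence within 50% of control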; further: strong numbers were not always called active
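Assay system: HT1080 RFP-PRO-GFP cells. Benchmarks: DMSO vehicle wells and RFP-L50D-GFP reporter cell wells. Times: overnight cell settling, then overnight compound exposure, 37 °C, 5% CO2. Compound: 20 µM single dose, 1% DMSO. Read-out basis: GFP/RFP fluorescence ratio.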
CSC inhib: cancer stem cell inhibition; AID 2717; cancer stem cell-like cells viability, luminescence; inhibition, % at 7.5 µM; 1.1% of 300,000 active;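 active means mean at 75% or more and at least half the replicates too; inconclusive means mean and replicates disagree; tested in HMLE shEcad cells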;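 further: 0% = median of negative and 100% = median of positive control wells; the first replicate is given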
eIF4H inh retest: recorded beside eIF4H inh, whose call it bears; inhibition, %; compound at 20 µM; confirmation average;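 mean of two retest wells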
PABP polyA inh retest: recorded beside PABP polyA inh, whose call it bears; inhibition, %; compound at 20 µM; confirmation repeats;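 mean of two retest wells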
MT1-MMP act inh RFP: also measured in MT1-MMP act inh; calls as there; RFP signal change, %; measured here: RFP expression control read;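 0 = vehicle wells; hits needed this value within 50% of zero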
* marks the source's active call; other numbers are inactive results; i = inactive; u = inconclusive; x = no result given; & = joins results of further samples; [ ] = dose if it differs, or a comment.

SMILES	Env fusion inh	PABP polyA inh	Yeast UUG start	Rce1 inh	eIF4H inh	MT1-MMP act inh	MT1-MMP act inh RFP	CSC inhib	others
Cc1ccnc(NC(=O)c2ccc(S(=O)(=O)c3ccccc3)cc2)c1	17	0	x	i	2	1	3	16
CCOC(=O)C1=C(COC(=O)CSc2ccc(Br)cc2)NC(=O)NC1C (configuration not stated)	-1	x	x	i	x	7	3	-1
COc1cccc(-c2cc(C(=O)Nc3ccccc3SC)no2)c1	-88	11	x	i	-2	3	-3	-1
CCOc1ccc(NC(=O)CN(C)CC(=O)Nc2ccccc2C#N)cc1OCC	x	-9	15	i	-10	2	1	x
Cc1ccc(/C=N/N2C(=S)SC(C)(C)C2N(O)C(=O)Nc2ccc([N+](=O)[O-])cc2)cc1 (configuration not stated)	-19	9	-31	i	2	-16	-8	35
Cc1ccccc1NC(=O)COC(=O)c1n[nH]c(=O)c2ccccc12	1	x	-6	x	x	3	3	x
CCCn1c(N)c(Sc2ccc(C)cc2)c(=O)n(CCC)c1=O	-3	-3	x	i	-4	-2	0	-14
CCN(CC)c1ncnc2c1ncn2[C@H]1CN(Cc2ccc(F)cc2)C[C@@H](CO)O1	-11	x	-11	x	x	0	-1	x
CNCCCCOc1ccccc1-c1ccccc1	18	-7	6	i	-3	4	0	x
CC(C)Cn1c(-c2ccncc2)n[nH]c1=S	-14	10	-18	i	3	3	3	15
Cc1ccc(C)c(NC(=S)/C(=C(\[O-])c2ccc(Cl)s2)[n+]2ccccc2)c1	u	19	x	i	2	-6	0	-15
COc1cc(/C=N/N=C(N)N)ccc1OCc1ccccc1Cl	1	-1	x	i	1	-4	-7	63
CCc1ccc(CNC(=O)C(=O)NCCc2ccc(OC)c(OC)c2)cc1	21	x	-7	x	x	-1	-6	2
CCOc1ccc(S(=O)(=O)Oc2ccc3ccccc3c2)cc1	1	8	8	i	-5	-1	0	49
Cc1ccccc1CSCC(=O)NNC(=S)NCC1CCCO1 (configuration not stated)	-77	7	-30	i	-6	3	-4	-10
O=S1(=O)CCOC[C@H](Cc2ccccc2)N1Cc1ccccc1Br	11	x	-36	x	x	-2	-7	x
O=C(NCc1ccccc1F)C(c1ccccc1)c1ccccc1	17	11	-12	i	-12	-1	2	-1
COC(=O)CN1C(=O)C2(C(C#N)=C(N)Oc3cc(C)oc(=O)c32)c2ccccc21 (configuration not stated)	-52	8	34	i	-6	-4	4	-3
CC(CNC(=O)CCS(=O)(=O)c1cc2c(cc1Cl)NC(=O)CO2)c1ccccc1 (configuration not stated)	-69	-11	-5	i	-8	0	5	-4
Clc1nc2c(ccc3ccccc32)[nH]1	-22	22	-16	i	9	3	0	-2
CC(OC(=O)CC1Sc2ccccc2NC1=O)C(=O)N(C)Cc1ccccc1 (configuration not stated)	-10	x	-5	x	x	-1	2	x
CC(=O)C1C(c2ccc(F)cc2)c2c(noc2C)CC1(C)O (configuration not stated)	-14	-6	-22	i	-9	1	1	-10
O=C(C1CCCO1)N1CCN(S(=O)(=O)c2ccc(Br)cc2)CC1 (configuration not stated)	-65	3	4	i	2	2	0	-10
CCN(CCO)C(=O)c1ccc2oc(Cc3ccc(Cl)cc3)nc2c1	-12	2	-6	i	-8	0	-2	-1
Cc1ccc(-c2nn(CC(=O)NCc3cc(-c4nn(C)c(=O)c5ccccc45)ccc3C)c(=O)c3ccccc23)cc1	-77	-6	-10	i	47	-58	-12	-5
CN(C)/C=C/C(=O)c1cnc(-c2ccc(Cl)cc2)s1	-9	-1	-1	i	2	-1	3	-2
N#CCc1ccc(NC(=O)Cn2c(=O)oc3ccccc32)cc1	-8	-9	-8	i	-15	0	5	-8
COc1ccc(Cl)cc1NC(=O)CN(C(=O)c1ccco1)C1CCCCC1	1	-2	12	i	1	1	-9	11
N#Cc1cc(-c2ccccc2)nnc1Sc1ccccc1	x	-9	-17	i	-8	2	4	-6
C/C(=N/NC(=O)CSc1nc2ccccc2s1)c1ccncc1	11	8	x	i	23	1	0	-7
O=C(Nc1ccc(N2CCN(C(=O)c3ccco3)CC2)c(Cl)c1)c1cc2ccccc2o1	x	-8	-11	i	2	-35	-30	-7
O=C(O)CCCN1C(=O)/C(=C\c2ccccc2OCc2ccccc2)SC1=S	5	12	x	i	-1	2	-3	12
CCN(CC(=O)Nc1ccc(NC(C)=O)cc1)C(=O)c1ccc2ccccc2c1	-10	x	-8	i	x	1	-3	12
O=C(CN1CCN(S(=O)(=O)c2cc(C(F)(F)F)ccc2Cl)CC1)N1CCc2ccccc2C1	3	x	3	x	x	-1	-6	24
NNC(=O)CNC(=O)C12CC3CC(CC(C3)C1)C2	21	-7	-13	i	-8	1	2	-10
CN(C(=O)c1nn(C)c2c1CSc1ccccc1-2)c1ccc(F)cc1	8	-3	-22	i	-19	-5	1	16
Cc1nc2c(c(N3CCOCC3)n1)OCC(=O)N2	x	-12	1	i	-5	-10	1	11
O=C(Nc1ccc2c(c1)OCO2)c1ccccc1SCC(=O)N1CCCC1	7	1	7	i	2	5	8	-17
Cc1cccc(N=Nc2c(O)[nH]c3ccc(F)cc23)c1	-113	-1	-12	i	u	-31	-2	-8
COC(=O)C1=C(C(=O)OC)SC2(S1)C(C(=O)OC)=C(C(=O)OC)SC1=C2c2cccc(C)c2NC1(C)C	-24	0	-7	i	-13	-5	-2	1
CC1O[C@@H](O[C@H](C)CC[C@@H](C)O[C@H]2OC(C)[C@@H](O)C[C@H]2O)C(O)C[C@H]1O (some centres not stated)	16	x	-13	i	x	0	7	-15
CN(Cc1ccon1)C(=O)CC1C(=O)NCCN1CC1CCCCC1 (configuration not stated)	-3	1	x	i	11	2	9	-5
CCCCNC(=O)CSc1nc2cc3c(cc2c(=O)n1CCCN(CC)CC)OCO3	-103	15	x	i	3	-1	-1	-4
Cc1ccccc1OCC(=O)NNC(=O)Cc1ccc(S(=O)(=O)N2CCOCC2)s1	7	x	-16	i	x	3	3	-10
O=C(CSc1ncnc2sccc12)NC1CCS(=O)(=O)C1 (configuration not stated)	22	x	-7	x	x	-3	1	-16
CCCC1S/C(=N/N=C/c2ccco2)NC1=O (configuration not stated)	15	3	x	i	60	-1	1	1	eIF4H inh retest=-2;PABP polyA inh retest=-6
CCS(=O)(=O)N1Cc2ccccc2CC1C(=O)N1CCN(c2cccc(C)c2C)CC1 (configuration not stated)	-31	7	-2	i	-3	-1	-8	5
COc1cccc(C(=O)COC(=O)CCC(=O)NC2CCCCC2)c1	8	9	9	i	-9	2	3	9
NC(=O)CSc1ccc(-c2ccc(F)cc2)nn1	-6	22	x	i	5	1	5	-5
O=C(O)C1CC=C(Cl)CC1C(=O)NC1CCCCC1 (configuration not stated)	x	2	-7	i	-4	-2	-1	-3
O=C(O)Cc1sc(Nc2ccccc2)nc1-c1cccs1	-10	7	x	i	56	-26	50	10	eIF4H inh retest=-10;PABP polyA inh retest=42
CCN1CN(Cc2ccco2)CNC1=S	-2	-4	x	i	-1	21	1	-6
Cc1ccc(S[C@@H](CCN2CC[C@H](O)CCC2=O)c2ccccc2)cc1	-15	-15	-10	i	-12	-5	2	1
O=C(CCn1cccc1)Nc1ccc(OC(F)(F)F)cc1	-5	1	x	i	-1	1	1	16
COc1cccc(CNC(=O)CCC2CCCN(C(=O)c3cc(C)on3)C2)c1 (configuration not stated)	-16	7	-7	i	0	-2	3	23
CCN1/C(=C/C(=O)c2ccco2)Sc2ccccc21	x	1	-1	i	0	3	5	-6
COc1ccccc1C1C(C(C)=O)=C(C)N=c2s/c(=C\c3cc(OC)c(OC)c(OC)c3)c(=O)n21 (configuration not stated)	31	-12	x	i	30	5	-12	18
CCCN(CCC)CCNC(=O)c1cc2c(C)nc3ccccc3c2o1	12	-4	-12	i	-9	3	-1	-8
CCc1noc(C)c1C(=O)Nc1cc(Cl)ccc1N1CCCC1	4	x	-14	i	x	-1	-7	-6
Cc1ccc2cn[nH]c2c1[N+](=O)[O-]	-28	-2	x	i	-10	-2	5	-6

Overlap with the part before: 2 entries, then new ones.
SMILES	Env fusion inh	PABP polyA inh	Yeast UUG start	Rce1 inh	eIF4H inh	MT1-MMP act inh	MT1-MMP act inh RFP	CSC inhib	others
CCc1noc(C)c1C(=O)Nc1cc(Cl)ccc1N1CCCC1	4	x	-14	i	x	-1	-7	-6
Cc1ccc2cn[nH]c2c1[N+](=O)[O-]	-28	-2	x	i	-10	-2	5	-6
COCCNc1nc(-c2ccccc2)nc2c1oc1ccccc12	12	10	x	i	7	0	6	-1
Cn1c(CSc2nnc(SCc3ccccc3)s2)nc2ccccc21	24	1	-14	i	-15	2	0	-13
COc1ccc(-c2nc3ccc(N4CCCC4)cc3c(=O)[nH]2)cc1OC	-68	0	7	i	2	5	-4	15
O=C1c2ccccc2C(=O)N1CCCC(=O)N1CCCc2ccccc21	12	-9	-4	i	-10	0	3	-5
O=C(NCc1ccc(Cl)cc1)c1cccc(S(=O)(=O)N2CCCC2)c1	7	x	-14	x	x	-1	-3	1
CCOC(=O)c1cc(=O)c2ccc(OCc3ccccc3)cc2o1	4	9	-22	i	-12	0	1	-10
COc1cc(/C=C/C(=O)Nc2nc3ccc(S(=O)(=O)NC(C)C)cc3s2)cc(OC)c1OC	-3	1	x	i	2	4	-1	-5
O=C(CCC(=O)c1cccs1)OCC(=O)c1ccc(F)cc1	-5	x	-1	x	x	3	2	x
COc1cccc(NC(=O)c2nnn(Cc3ccc(Br)cc3F)c2N)c1	-29	-5	4	i	-27	4	-3	17
CC(C)CNc1oc(-c2ccco2)nc1C#N	-16	11	-14	i	-3	7	3	-5
Cc1cc(C(=O)OCC(=O)N2CC(=O)Nc3ccccc32)c(C)n1-c1ccccc1	23	68*	-18	i	3.7*	-3	-10	-8	eIF4H inh retest=97*;PABP polyA inh retest=99*
Cc1[nH]c2ccccc2c1C(=O)COC(=O)C1CC(=O)N(Cc2ccccc2)C1 (configuration not stated)	x	47	2	i	-12	1	2	-4

Reprinted at random: three records from the list
SMILES	Env fusion inh	PABP polyA inh	Yeast UUG start	Rce1 inh	eIF4H inh	MT1-MMP act inh	MT1-MMP act inh RFP	CSC inhib	others
O=C(NCc1ccc(Cl)cc1)c1cccc(S(=O)(=O)N2CCCC2)c1	7	x	-14	x	x	-1	-3	1
Cc1[nH]c2ccccc2c1C(=O)COC(=O)C1CC(=O)N(Cc2ccccc2)C1 (configuration not stated)	x	47	2	i	-12	1	2	-4
COCCNc1nc(-c2ccccc2)nc2c1oc1ccccc12	12	10	x	i	7	0	6	-1

Going on with the list:
SMILES	Env fusion inh	PABP polyA inh	Yeast UUG start	Rce1 inh	eIF4H inh	MT1-MMP act inh	MT1-MMP act inh RFP	CSC inhib	others
CCn1cc(C(=O)OCC(=O)Nc2ccc(S(=O)(=O)N3CCCC3)cc2)c(=O)c2ccc(C)nc21	21	-20	1	i	-12	7	4	-12
COc1cc(C)c(S(=O)(=O)NCc2ccc3c(c2)OCO3)cc1C	-8	-6	12	i	-4	2	-1	1
COc1cccc(S(=O)(=O)N(C)C[C@H]2OCc3cnnn3CCCC(=O)N([C@H](C)CO)C[C@H]2C)c1	8[16.7 µM]	x	6&6	x	x	1	-2	x
Cc1ccc(CSCCNC(=O)c2cccc([N+](=O)[O-])c2)cc1	4	8	x	i	-8	5	2	8
Nc1nc(SCc2ccc(Br)cc2)n[nH]1	14	12	-17	i	6	1	-2	-1
CCN(CC)c1ccc(N=C2C=CC(=O)C=C2NC(C)=O)cc1	-134	x	-22	x	x	-18	51	x
CC(=O)c1ccc(OCC(O)CN2CCc3ccccc3C2)cc1 (configuration not stated)	-4	12	x	i	2	1	2	-13
